Polio RdRp inh – poliovirus RNA polymerase inhibition | poliovirus polymerase elongation, fluorescence polarization; stronger effect = lower value | % elongation, % (compound at 16.7 µg/mL) | actives 0.66% (n = 150,000); in the data active = % elongation below about 90%; also: some results filed as inactive read as strong as hits
Target sequence (P03300 1749-2209 limits assumed): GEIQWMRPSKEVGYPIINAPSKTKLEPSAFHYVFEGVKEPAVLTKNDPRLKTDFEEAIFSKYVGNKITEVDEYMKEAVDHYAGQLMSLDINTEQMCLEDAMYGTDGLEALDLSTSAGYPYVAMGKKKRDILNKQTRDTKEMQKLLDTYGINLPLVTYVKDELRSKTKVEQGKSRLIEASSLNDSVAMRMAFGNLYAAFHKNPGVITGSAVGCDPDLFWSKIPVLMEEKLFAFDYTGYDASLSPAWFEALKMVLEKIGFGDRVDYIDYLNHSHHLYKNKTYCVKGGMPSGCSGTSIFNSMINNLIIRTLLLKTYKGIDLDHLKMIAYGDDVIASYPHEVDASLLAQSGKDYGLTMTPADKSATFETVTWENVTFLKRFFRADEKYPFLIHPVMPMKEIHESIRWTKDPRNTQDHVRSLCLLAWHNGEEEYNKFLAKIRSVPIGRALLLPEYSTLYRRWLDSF
Polio RdRp inh intensity – further read-out of Polio RdRp inh, marked with its call; % elongation; measured here: total intensity read-out; formula for this scale not given here;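 total fluorescence in place of polarization; lower means less elongation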
An asterisk follows results filed as active. These rows are one share of the data; the hit share may differ from the screen's.

SMILES | Polio RdRp inh | Polio RdRp inh intensity
COC(=O)C1=C(CS(=O)(=O)c2ccc(C)cc2C)NC(=O)NC1c1ccc(C)cc1 (configuration not stated) | 104 | 106
COc1ccccc1Cc1nc2ccccc2nc1SCC(=O)Nc1cc(Cl)ccc1OC | 101 | 105
O=C(NC1CC(=O)N(c2ccccc2)C1)c1ccco1 (configuration not stated) | 107 | 111
CCCCCn1c(=O)[nH]c2cc(C(=O)N3CCN(c4cccc(Cl)c4)CC3)ccc2c1=O | 108 | 104
CCN(CC)c1cc(NC2CCCCC2)c2c3c(onc13)-c1ccccc1C2=O | 87 | 245
Cn1nc(C(=O)N2CCN(c3ccccc3)CC2)c2c1-c1ccccc1S(=O)(=O)C2 | 110 | 108
Cc1ccc(N(CC(=O)N2CCN(c3ccccc3F)CC2)S(=O)(=O)c2c(C)noc2C)cc1 | 109 | 111
O=C(NCCc1cccs1)c1ccc(Cn2c(SCc3ccc(F)cc3)nc3cccnc32)cc1 | 112 | 116
CCNC(=O)c1ccc(NC(=O)N2CCCCc3ccccc32)cc1 | 108 | 113
CCc1ccc(-n2c(=O)c3ccc(C(=O)NCCc4ccccc4)cc3n(Cc3ccccc3C#N)c2=O)cc1 | 106 | 109
CCc1ccc(NC(=O)CSC2=Nc3ccccc3C3=NC(CC(=O)NCc4cccs4)C(=O)N23)cc1 (configuration not stated) | 109 | 112
COc1ccc(N(C(=O)COc2c(C)cccc2C)S(=O)(=O)c2ccc(Cl)cc2)cc1 | 102 | 103
COc1ccc(N2CCN(CCCNC(=O)C3COc4ccccc4C3)CC2)cc1 (configuration not stated) | 105 | 94
CC(=O)CSc1nc(-c2ccccc2)[nH]c1S(=O)(=O)c1ccc(C)cc1 | 108 | 106
Cc1ccc(C)c(NC(=O)C(Cc2ccccc2)N2Cc3ccccc3C2=O)c1 (configuration not stated) | 101 | 97
CC(=O)c1ccc(NS(=O)(=O)c2cc3[nH]c(=O)c(=O)[nH]c3cc2C)cc1 | 111 | 100
CCC1CCCCN1CCCNC(=O)c1ccc2c(c1)N(Cc1ccccc1F)C(=O)c1ccccc1S2(=O)=O (configuration not stated) | 109 | 108
O=C(c1cnc(N2CCCCC2)c2ccccc12)N1CCN(c2ccc(F)cc2)CC1 | 115 | 112
Cc1ccccc1CN1CCC(CNC(=O)c2c(C)oc3ncnc(N4CCCCC4)c23)CC1 | 104 | 105
Cc1ccc2nc(-c3ccccc3O)c(Nc3ccccc3C)n2c1 | 107 | 107
O=C(CSc1nc2c(cnn2-c2ccc(F)cc2)c(=O)[nH]1)Nc1ccccc1C(F)(F)F | 106 | 108
CC(=O)Nc1ccc2nc(SCCOc3ccccc3Cl)sc2c1 | 105 | 101
Cn1c(C(=O)NCc2ccccc2F)cc2oc3ccccc3c21 | 108 | 107
CC(=O)c1c(C)oc2c1cc(NS(=O)(=O)c1ccc(C(C)(C)C)cc1)c1ccccc12 | 105 | 111
CC(C)CCn1c(SCc2cccc(F)c2)nc2ccsc2c1=O | 109 | 114
CCc1ccc2occ(CC(=O)Nc3c(C(=O)c4ccccc4)oc4ccccc34)c2c1 | 117 | 112
COc1ccc(CCNc2nc3c(-c4cccc(C)c4)nnn3c3ccccc23)cc1OC | 108 | 107
CCOC(=O)c1c(NC(=O)COc2ccc(C)cc2C(C)(C)C)sc2c1CCC(C)C2 (configuration not stated) | 105 | 110
CC(=O)Nc1ccc(NC(=O)CSc2nc3ccccc3nc2N2CCC(C)CC2)cc1 | 104 | 110
COc1cccc(-n2nnc(-c3nc(-c4cccs4)no3)c2N)c1 | 118 | 119
CC(C)(C)c1ccc(CSc2nc3c(c(=O)[nH]2)CCCC3)cc1 | 102 | 97
O=C(CSc1cn(CCNC(=O)c2ccccc2F)c2ccccc12)Nc1ccccc1F | 106 | 108
COc1ccc(OC)c(NC(=O)CSC2=Nc3ccccc3C3=NC(CCC(=O)NCCc4ccccc4)C(=O)N23)c1 (configuration not stated) | 110 | 104
CC(=O)Nc1ccc(/C=C/c2nc(-c3ccccc3O)n(-c3ccccc3)n2)cc1 | 106 | 109
CC1CCC(Nc2ncnc3onc(-c4ccc(F)cc4)c23)CC1 (configuration not stated) | 116 | 116
CCCCc1nn2c(=O)cc(COC(=O)c3ccco3)nc2s1 | 105 | 111
Cc1nc(-c2ccc(S(=O)(=O)N3CCN(c4ccc(F)cc4)CC3)cc2)co1 | 110 | 113
COc1ccc(CNC(=O)CSc2ncc(S(=O)(=O)c3ccc(Br)cc3)c(=O)[nH]2)cc1 | 102 | 106
CCC(=O)N1CCc2cc(CNC(=O)Nc3ccc(OC)cc3OC)ccc21 | 98 | 101
COc1ccc(Nc2nnc(-n3nc(C)cc3C)c3ccccc23)cc1 | 105 | 112
COCCN(Cc1ccco1)C(=O)c1cc2c(=O)[nH]c3ccc(C)cc3c2s1 | 102 | 107
CCN(C(=O)Cn1cc(C(=O)c2ccc(F)cc2)c(=O)c2ccc(C)nc21)c1cccc(C)c1 | 114 | 125
Cc1cccc(C(=O)NC2=NC(c3ccc(Cl)cc3)CC(=O)N2)c1 (configuration not stated) | 105 | 110
Cc1ccc(-c2n[nH]c3c2C(c2ccccc2Cl)N(c2ccc(C(=O)O)cc2)C3=O)cc1 (configuration not stated) | 108 | 106
Cc1ccc(-n2c(SCc3ccccc3F)nc3[nH]ncc3c2=O)cc1Cl | 106 | 112

Looked up by structure from above:
SMILES | Polio RdRp inh | Polio RdRp inh intensity
Cc1ccc(N(CC(=O)N2CCN(c3ccccc3F)CC2)S(=O)(=O)c2c(C)noc2C)cc1 | 109 | 111
CCC1CCCCN1CCCNC(=O)c1ccc2c(c1)N(Cc1ccccc1F)C(=O)c1ccccc1S2(=O)=O (configuration not stated) | 109 | 108
CC(=O)Nc1ccc2nc(SCCOc3ccccc3Cl)sc2c1 | 105 | 101
CCNC(=O)c1ccc(NC(=O)N2CCCCc3ccccc32)cc1 | 108 | 113

Entries from the list above that have a thiophene ring, fused or not, in the order listed:
SMILES | Polio RdRp inh | Polio RdRp inh intensity
O=C(NCCc1cccs1)c1ccc(Cn2c(SCc3ccc(F)cc3)nc3cccnc32)cc1 | 112 | 116
CCc1ccc(NC(=O)CSC2=Nc3ccccc3C3=NC(CC(=O)NCc4cccs4)C(=O)N23)cc1 (configuration not stated) | 109 | 112
CC(C)CCn1c(SCc2cccc(F)c2)nc2ccsc2c1=O | 109 | 114
CCOC(=O)c1c(NC(=O)COc2ccc(C)cc2C(C)(C)C)sc2c1CCC(C)C2 (configuration not stated) | 105 | 110
COc1cccc(-n2nnc(-c3nc(-c4cccs4)no3)c2N)c1 | 118 | 119
COCCN(Cc1ccco1)C(=O)c1cc2c(=O)[nH]c3ccc(C)cc3c2s1 | 102 | 107

Next part.
SMILES | Polio RdRp inh | Polio RdRp inh intensity
O=C(COCc1cc(-c2ccc(F)cc2)on1)Nc1cc(Cl)cc(Cl)c1 | 110 | 97
CCOC(=O)c1ccc(-c2ccc(/C=C(\C#N)c3nc4ccc(C)cc4[nH]3)o2)cc1 | 86 | 232
COc1ccc(NC(=O)CSc2oc(-c3ccco3)nc2S(=O)(=O)c2ccccc2)c(OC)c1 | 109 | 107
O=C(CSc1nccn1-c1cccc(Cl)c1)Nc1ccc2c(c1)OCO2 | 107 | 111
Cc1ccc2c(c1)c(=O)c(C(=O)c1ccc3c(c1)OCO3)cn2Cc1cccc(F)c1 | 106 | 109
CCn1c2ccccc2c2nnc(N3CCN(c4ccc(F)cc4)CC3)nc21 | 103 | 106
Cc1nn(C(=O)c2c(F)cccc2F)c(C)c1S(=O)(=O)N1CCCCCC1 | 107 | 110
CCCc1cc(=O)oc2c3c(ccc12)OCN(Cc1ccccc1OC)C3 | 112 | 106
COc1ccc(/C=C/c2nc(C#N)c(NC3CCCCC3)o2)cc1OC | 108 | 101
O=C1CSC2(C(=O)N(Cc3c(F)cccc3Cl)c3ccccc32)N1c1ccc(F)c(F)c1 (configuration not stated) | 107 | 113
CCCSc1nnc2c(n1)OC(CC)N(C(C)=O)c1ccccc1-2 (configuration not stated) | 107 | 110
Cc1cc(C)c(NC(=O)CCc2c(C)nc3c(c(C)nn3C(C)(C)C)c2C)c(C)c1 | 109 | 110
COc1cc(NC(=O)CSc2ncc(S(=O)(=O)c3ccc(Br)cc3)c(=O)[nH]2)cc(OC)c1 | 109 | 112
COc1ccccc1C(=O)NC1(C(F)(F)F)C(=O)Nc2c1c(=O)[nH]c(=O)n2-c1ccc(F)cc1 (configuration not stated) | 102 | 99
CCN(CC)CCCNC(=O)Cc1ccc(NC(=O)N2CCCCc3ccccc32)cc1 | 110 | 111

One compound at a time (already shown). Values in the order: Polio RdRp inh, Polio RdRp inh intensity
O=C1CSC2(C(=O)N(Cc3c(F)cccc3Cl)c3ccccc32)N1c1ccc(F)c(F)c1 (configuration not stated) is entered as 107, 113
CCCc1cc(=O)oc2c3c(ccc12)OCN(Cc1ccccc1OC)C3 is entered as 112, 106
CCCSc1nnc2c(n1)OC(CC)N(C(C)=O)c1ccccc1-2 (configuration not stated) is entered as 107, 110
COc1cc(NC(=O)CSc2ncc(S(=O)(=O)c3ccc(Br)cc3)c(=O)[nH]2)cc(OC)c1 is entered as 109, 112
COc1ccc(NC(=O)CSc2oc(-c3ccco3)nc2S(=O)(=O)c2ccccc2)c(OC)c1 is entered as 109, 107

(next part)
SMILES | Polio RdRp inh | Polio RdRp inh intensity
Cc1cn(C)c(CC(=O)NCc2ccccc2Cl)c1C(=O)O | 102 | 108
CCOc1cc(C#N)c(NC(=O)c2cccc(S(=O)(=O)N3CCOCC3)c2)cc1OCC | 103 | 100
Cc1nn2cc(-c3ccc(OC(C)C)cc3)nc2s1 | 106 | 110
Cc1cccc(S(=O)(=O)c2cn(Cc3ccccc3)c3cc(N4CCCCC4)c(F)cc3c2=O)c1 | 113 | 117
CCN1CCC(N(Cc2cccc(OC)c2)C(=O)Nc2cccc(C(F)(F)F)c2)CC1 | 107 | 105
CSc1ccc(C2c3[nH]c4ccccc4c3CCN2C(=O)CCc2ccccc2)cc1 (configuration not stated) | 106 | 103
O=C(CSCc1cnn(-c2ccccc2)c1-n1cccc1)NCc1ccc(F)cc1 | 113 | 115
Cc1cccc(NC(=O)c2oc3ccccc3c2NC(=O)Cc2coc3cc(C)cc(C)c23)c1 | 120 | 118
COc1ccc2c(c1)c(=O)c(C(=O)c1ccc(C)c(C)c1)cn2CC(=O)Nc1ccc2c(c1)OCCO2 | 94 | 94
Cc1nc(SCC(=O)OC(C)(C)C)c2c3c(sc2n1)CCCC3 | 108 | 110
CC1CCN(C(=O)CN2c3ccc(Br)cc3-c3ccccc3S2(=O)=O)CC1 | 109 | 108
COc1ccc(-c2nc3ccccc3s2)cc1NC(=O)c1ccc(C#N)cc1F | 102 | 100
COc1cc(NC(=O)C(CCSC)NS(=O)(=O)c2ccc3c(c2)oc(=O)n3C)cc(OC)c1 (configuration not stated) | 99 | 100
Cc1c(CCNC(=O)c2ccco2)sc2nc(-c3ccc(F)cc3)nn12 | 97 | 101
CCCCSc1nc(-c2ccc(OC)cc2)ccc1C#N | 103 | 105
CN(Cc1ccccc1)c1ncnc2c1nc1n2CCCC1 | 104 | 107
CCc1ccc(OCC(=O)Nc2ccc3c(c2)c2ccccc2n3CC)cc1 | 106 | 107
COc1ccc2oc(-c3ccc(C)c(NC(=O)CSc4ccc(Cl)cc4)c3)nc2c1 | 102 | 103
COc1ccc(N2CCN(Cc3nc4c(c(=O)[nH]c(=O)n4C)n3Cc3ccccc3)CC2)cc1 | 100 | 106
Cc1nc2c3ccccc3nc(NNC(=O)CCC(=O)N3CCN(c4cccc(C(F)(F)F)c4)CC3)n2n1 | 110 | 117
CC(=O)c1nnn(-c2ccc(C)cc2Cl)c1C | 113 | 106
Cc1ccc(C(=O)c2oc3ccccc3c2NC(=O)c2cc(-c3ccc(Cl)cc3)on2)cc1 | 103 | 113
COc1cccc2cc(-c3nc(-c4ccc(Cl)cc4)cs3)c(=O)oc12 | 112 | 111
COC(=O)c1ccccc1NC(=O)c1ccc2c(c1)CCN2S(C)(=O)=O | 99 | 95
Cc1c(C(=O)N2CCCCCC2)c(S(=O)(=O)Nc2ccc(OC(F)(F)F)cc2)c(C)n1C | 109 | 97
Cc1cc(Br)ccc1NC(=O)c1cn(C2CCCC2)c(=O)c2c1c1ccccc1n2C | 115 | 116
O=S(=O)(Nc1ccc(O)c(Sc2nc3ccccc3s2)c1)c1cc(Cl)ccc1Cl | 111 | 111
COc1ccc(-c2nn(C)c3sc(C(=O)Nc4cc(OC)c(OC)c(OC)c4)cc23)cc1OC | 107 | 111
CCOC(=O)c1ccc(CN(Cc2ccc(Br)cc2)S(=O)(=O)c2cccc(Cl)c2C)cc1 | 107 | 107
COc1ccc(C(=O)c2c(N)c(-c3nc(-c4ccccc4)cs3)c3ccccn23)cc1 | 94 | 111
CCC(Oc1ccc(F)cc1)C(=O)Nc1cc(-c2ccc(C)cc2)no1 (configuration not stated) | 104 | 101
Cc1ccc(-c2cn3c(n2)sc2cc(C(=O)NCCC4=CCCCC4)ccc23)c(C)c1 | 103 | 98

Screening data: PubChem BioAssay, ICCB-Longwood Screening Facility, Harvard Medical School
